PINK1 expr mod: A Quantitative High throughput Screen to Identify Chemical Modulators of PINK1 Expression. Potency, µM (highest dose often 76.6 µM), without a hit: at the top dose activation (PINK1 increase), hits mostly activators. hit rate 0.2% among 410,000. PINK1 immunofluorescence, high-content cytometry, 24 h; active = well fitted activation curve with a large enough effect; inconclusive = small, poorly fitted or top-dose-only effect; inactive = flat fitted curve, though single readings scatter; cell line not stated here;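 also: potency is read from the fitted curve at half-maximal effect; % of control where 0% means no effect; nearly all actives have a fitted effect of over 65% in size; a mitochondrial uncoupler was the plate control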
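Readout is PINK1 immunofluorescence, quantified alongside mitochondrial, cell and nuclear markers by laser-scanning microplate cytometry. Cells from a stable line were exposed to compound titrations (5 concentrations) for 24 hours, with CCCP controls.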
gsp antag: qHTS for Antagonists of gsp, the Etiologic Mutation Responsible for Fibrous Dysplasia/McCune-Albright Syndrome: qHTS | AID 624288, 2012 | hit rate 0.4% among 340,000 | gsp-mutant cells, cAMP HTRF, 30 min; control for the full effect not named in the record | Potency, µM (doses to about 76.9 µM), for the others: top-dose activity change, negative = inhibition, most hits filed as inhibitors; active = falling curve of any shape with a large fitted effect; inconclusive = falling curve, mostly with a smaller effect; inactive = flat or rising curve; cell line not stated here;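 also: intracellular cAMP measured with PDE inhibitor Ro 20-1724 present during compound exposure; potency is read from the fitted curve at half-maximal effect; % is scaled to controls: 0 for no effect and ±100 for the full control effect; nearly all actives have a fitted effect of over 65% in size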
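G418-selected cells were plated in DMEM/10% FBS for 16-24 h at 37C, then treated with compounds plus the PDE inhibitor […] (300 uM solution added) for 30 min at 37C. Intracellular cAMP was measured by HTRF after 30 min lysis at room temperature.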
D2 agonist: Beta-Arrestin HTS for Positive Allosteric Modulators of the Human D2 Dopamine Receptor: Agonists; activation, % (concentration not given with the values); DiscoveRx PathHunter D2 beta-arrestin, luminescence, 90 min; 100% = 57 uM dopamine signal; hit rate 0.084% among 360,000; in the data active = activation above about 40%; inconclusive = about 15% to 40%; inactive = below about 15%; also: compound concentration not given in the record; the text of the record calls up to 30% inactive
Target sequence (P14416 whole entry, looked up): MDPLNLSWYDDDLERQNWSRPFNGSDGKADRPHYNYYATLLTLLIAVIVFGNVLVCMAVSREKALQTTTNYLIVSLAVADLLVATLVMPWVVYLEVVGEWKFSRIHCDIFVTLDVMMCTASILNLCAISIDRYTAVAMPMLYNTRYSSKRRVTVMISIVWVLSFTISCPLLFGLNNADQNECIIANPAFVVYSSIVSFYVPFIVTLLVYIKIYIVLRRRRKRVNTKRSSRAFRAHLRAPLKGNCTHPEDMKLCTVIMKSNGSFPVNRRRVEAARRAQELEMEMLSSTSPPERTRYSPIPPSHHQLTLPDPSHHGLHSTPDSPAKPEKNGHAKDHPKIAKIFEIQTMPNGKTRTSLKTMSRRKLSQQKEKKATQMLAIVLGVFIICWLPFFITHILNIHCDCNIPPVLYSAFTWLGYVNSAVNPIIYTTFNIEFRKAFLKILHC
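Agonist mode: compounds alone added to overnight-plated D2 PathHunter cells for 90 min at 37 C, with 57 uM final dopamine (EC100) defining full response. Beta-arrestin recruitment detected by chemiluminescent reagent, read after 1 h at ambient temperature.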
ClpP mod: qHTS Assay for Activators of ClpP. purified B. subtilis ClpP, FRET peptide cleavage, 20 min. ATP-dependent Clp protease proteolytic subunit (Bacillus subtilis (strain 168)), P80244. Potency, µM (doses to about 57.5 µM), without a hit: at the highest dose activity change, negative = active. hit rate 1.9% among 340,000; active = well fitted falling curve with a large enough effect; inconclusive = small, poorly fitted or top-dose-only effect; inactive = no such curve, though single readings can be large or run the other way; also: potency is read from the fitted curve at half-maximal effect; the source files actives as falling curves though it sought activators and does not explain the sign; nearly all actives have a fitted effect of over 65% in size; many hits overshoot -100%
Target sequence (P80244 whole entry, looked up): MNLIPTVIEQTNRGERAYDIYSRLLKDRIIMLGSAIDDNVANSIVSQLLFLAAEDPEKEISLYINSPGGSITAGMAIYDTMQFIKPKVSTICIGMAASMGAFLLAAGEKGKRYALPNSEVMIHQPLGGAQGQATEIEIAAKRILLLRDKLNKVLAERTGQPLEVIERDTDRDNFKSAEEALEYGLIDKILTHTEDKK
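ClpP 10 microg/mL final, pH 8 Tris/KCl buffer with BSA, glycerol, Tween-20; compound pinned in; FRET-FV substrate; RT 20 min; Ex320/Em430; ΔFRET vs ADEP 5.8 microM, DMSO, no enzyme.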
gsp ag: qHTS for Agonist of gsp, the Etiologic Mutation Responsible for Fibrous Dysplasia/McCune-Albright Syndrome: qHTS; gsp mutant cells, cAMP HTRF, 30 min; control for the full effect not named in the record; hit rate 0.13% among 340,000; AID 624287, 2012; Potency, µM (series often up to 76.9 µM), inactives show top-dose activation (cAMP increase), actives largely listed as activators; active = well fitted activation curve with a large enough effect; inconclusive = small, poorly fitted or top-dose-only effect, or another doubt; inactive = no such curve, though single readings can be large or run the other way; cell line not stated here;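 also: phosphodiesterase inhibitor Ro 20-1724 added with compounds to block cAMP breakdown; potency is read from the fitted curve at half-maximal effect; nearly all actives have a fitted effect of over 60% in size; about a fifth of the inactives were tested at one dose only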
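Cells in DMEM/10% FBS with G418 were pretreated with compounds in DMSO plus […] (300 uM stock) for 30 min at 37C. cAMP was measured by HTRF (cAMP-d2 plus anti-cAMP antibody-K) after 30 min at room temperature.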
Sfp PPTase inh: qHTS Assay for Inhibitors of Bacillus subtilis Sfp phosphopantetheinyl transferase (PPTase) | Potency, µM, for the others: max response, negative = inhibition, most hits filed as inhibitors | AID 1490, 2009 | Biochemical Sfp PPTase activity, qHTS | 4'-phosphopantetheinyl transferase ffp (Bacillus subtilis), Q9F4F7 | hit rate 3.5% among 310,000; active = well fitted inhibition curve with a large enough effect; inconclusive = small, poorly fitted or top-dose-only effect, or another doubt; inactive = no such curve, though single readings can be large or run the other way;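 also: the enzyme is Sfp with the accession as filed and its product quenches rhodamine fluorescence; potency is read from the fitted curve at half-maximal effect; 0% = enzyme reaction without inhibitor and -100% = no enzyme wells; top concentration of the series not given in the record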
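Buffer: 50 mM Hepes-Na pH 7.6, 10 mM MgCl2, 0.01% Nonidet P-40, 0.01% BSA. Enzyme 15 nM, pre-exposed to compound 15 min; substrates then added and fluorescence change tracked over 30 min.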
Menin MLL FP FL: qHTS Assay for Inhibitors Targeting the Menin-MLL Interaction in MLL Related Leukemias: Competition With Fluorescein Labeled MLL-derived Peptide; Fluorescence polarization, fluorescein-MLL peptide displacement from menin; FP activity change, % at 61.4 µM; 290,000 tested, under 10 active; inconclusive = falling polarisation curve, or a change in total fluorescence; inactive = total fluorescence flat and polarisation flat or rising; no compound was filed as active; the % refers to the polarisation; negative = inhibition;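 also: % of control where 0% means no effect; inhibitors lower the polarisation; unlabelled MLL peptide was the positive control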
Numbers without * were called inactive; u = inconclusive; x = not tested or not shown; [ ] = another dose, or the depositor's remark.

SMILES	PINK1 expr mod	gsp antag	D2 agonist	ClpP mod	gsp ag	Sfp PPTase inh	Menin MLL FP FL
Cc1nc2c(C)cccn2c1/C(O)=C1\C(=O)C(=O)N(CCN(C)C)C1c1cccs1 (centres undefined)	-1.3%	6%	-3.4	x	-25%[15.4 µM]	x	x
COc1ccc(S(=O)(=O)N2CCOC2CNC(=O)C(=O)NCCc2ccccc2)cc1 (centres undefined)	0.6%	7%	2.7	0.3%	-61%[inhibitor]	9%	-5.9
Cc1cc(C(=O)NC(=S)Nc2ccccc2N2CCCC2)ccc1[N+](=O)[O-]	1.0%	8%	0.3	-1.0%	-4%	0%	1.5
COC(=O)c1ccccc1NC(=O)COc1ccccc1[N+](=O)[O-]	-0.9%	-21%	0.1	x	22%[15.4 µM]	5%	0.0
COc1ccccc1N(Cc1ccccc1)S(=O)(=O)c1cccc(C(=O)Nc2ncccc2C)c1	-2.6%	-40%	-4.8	0.9%	-44%	x	x
O=C1CC(c2cccc(Cl)c2)C(n2cncn2)C(=O)C1C1NCCc2ccccc21 (centres undefined)	-2.5%	-7%	-4.2	-0.5%	2%	19%	1.3
CN(Cc1cccs1)C(=O)CCCc1c[nH]c2ccccc12	3.1%	-1%	3.0	x	17%	5%	-2.7
CCCNC(=O)c1cc(S(=O)(=O)N2CCC3(CC2)OCCO3)ccc1F	0.0%	x	-2.0	0.9%	-16%	x	x
CC(=O)NCCn1c(SCC(=O)c2ccccc2)nc2ccccc2c1=O	0.1%	-3%	-2.3	-3.9%	0%	4%	2.2
O=C(Oc1cccc2ccccc12)c1ccccc1	5.0%	-2%	8.6	-3.4%	x	x	x
CSc1ccccc1NC(=O)CN(C)CC(=O)Nc1ccccc1N1CCOCC1	8.9%	-45%	-18	x	15%[15.4 µM]	2%	-0.6
CC(=O)NCCNc1ncnc2ccc(-c3ccccc3C(F)(F)F)cc12	-0.1%	x	x	x	x	30%[activator]	2.1
O=[N+]([O-])c1ccc(N/N=C/c2cccc(O)c2O)cc1	5.5%	-15%	-0.6	x	18%	-6%	17
CCCNC(=O)c1ccccc1C(=O)NCCC	0.5%	-5%	-9.5	-0.9%	-21%	16%	1.7
NC(=O)NC(=O)COC(=O)c1ccc2noc(-c3ccccc3)c2c1	13%	-15%	u	x	6%	-6%	1.7
O=C(Nc1ccc2nsnc2c1)c1ccc2c(c1)OCO2	6.7%[38.3 µM]	-13%	-2.0	u	9%	16%	0.4
CCc1ccc(NC(=O)C2CCCN(S(C)(=O)=O)C2)cc1 (centres undefined)	0.8%	0%	5.4	x	3%[15.4 µM]	10%	-4.6
Cc1c(C(=O)Nc2ccccc2C(=O)N2CCCC2)cccc1[N+](=O)[O-]	-0.3%	3%	-5.0	-1.5%	2%	21%	-4.0
Cc1ccccc1-c1nnn(CC(=O)N2CCN(S(=O)(=O)c3ccc(Cl)cc3)CC2)n1	-1.6%	-7%	1.5	-1.3%	-2%	18%	1.0
Cc1ccc(CC(=O)NCCN2CCOCC2)cc1	2.6%	15%	2.8	x	-47%	15%	-2.9
O=C(c1sc2ccccc2c1Cl)N1CCN(c2ncccn2)CC1	-0.2%	-6%	-0.1	-4.3%	4%	16%	5.8
Cc1cc(C)c2c(n1)nn1c(NCCOCCO)cc(C)nc21	0.1%	13%	-0.1	u	3%	-7%	1.2
CCC(=O)Nc1ccc(Cl)c(NC(=O)c2ccccc2OC)c1	1.0%	2%	9.0	x	0%	1%	-4.2
COCCNCCCCSc1ccc(Cl)cc1	0.2%	8%	-3.0	-2.5%	-17%	u	1.9
Cc1cccc(NC(=O)NCCN2CCN(c3ccccc3)CC2)c1C	0.6%	8%	4.7	-0.1%	-33%[inhibitor]	-2%	1.8
Cc1ccc2[nH]c3c(c2c1)SC(C)(C)CC3=O	6.8%	-4%	1.1	-2.5%	u	19%	0.1
Cc1nnc2n1N=CC=C(C(C)(C)C)S2	0.7%	8%	-2.1	1.9%	6%	21%	4.1
CCCCC(=O)NCCc1cc2ccc(OC)cc2[nH]c1=O	-0.9%	6%	0.8	25µM*	2%	12%	-0.3
COc1ccc(NC(=O)CN2CCc3ccccc3C2)c(OC)c1	-0.4%	-1%	-2.8	x	-14%	-2%	0.2
O=C(NNC(=O)c1cccc(S(=O)(=O)Nc2ccccc2F)c1)c1ccncc1	0.3%	x	-2.2	1.1%	15%	x	x
COc1cc(N2C(=O)c3ccccc3C2=O)c(Cl)cc1C(=O)OCC(=O)NCc1ccco1	1.5%	-2%	3.2	-0.8%	26%	-4%	3.0
CCOc1ccc(NC(=O)C2CCN(S(=O)(=O)CC)CC2)cc1	1.1%	3%	-3.6	-0.8%	-40%[inhibitor]	17%	-2.3
COc1ccc(C(C(=O)NC(C)(C)C)N(C(=O)Cn2nnc3ccccc32)c2ccc(C(C)=O)cc2)cc1O (centres undefined)	0.9%	-4%	-5.7	-1.6%	12%	10%	0.6
CC(C)c1ccc(C(=O)N2CCCC(c3cc(C(=O)NCc4ccccc4)no3)C2)cc1 (centres undefined)	2.6%	x	2.9	0.1%	x	x	x
C[C@H](CO)N1C[C@H](C)[C@@H](CN(C)C(=O)Oc2ccccc2)OCc2cn(nn2)CCCC1=O	2.4%	x	-4.5	-4.0%	-26%	x	x
COc1cc(-c2nnc(NC(=O)c3ccco3)o2)cc(OC)c1OC	3.2%	0%	0.4	-1.5%	1%[15.4 µM]	x	x

Among those listed so far, these have a tert-butyl group.
SMILES	PINK1 expr mod	gsp antag	D2 agonist	ClpP mod	gsp ag	Sfp PPTase inh	Menin MLL FP FL
Cc1nnc2n1N=CC=C(C(C)(C)C)S2	0.7%	8%	-2.1	1.9%	6%	21%	4.1
COc1ccc(C(C(=O)NC(C)(C)C)N(C(=O)Cn2nnc3ccccc32)c2ccc(C(C)=O)cc2)cc1O (centres undefined)	0.9%	-4%	-5.7	-1.6%	12%	10%	0.6

(next part)
SMILES	PINK1 expr mod	gsp antag	D2 agonist	ClpP mod	gsp ag	Sfp PPTase inh	Menin MLL FP FL
O=c1c2oc3ccccc3c2ncn1Cc1ccccc1Cl	-0.1%	9%	-3.7	-1.1%	-33%[inhibitor]	6%	3.8
Cc1ccc(S(=O)(=O)Nc2ccc(C(=O)OCC(=O)N(CCC#N)c3ccccc3)cc2)cc1C	-3.5%	-1%	0.7	-12%	3%	28%	1.2
Cc1ccc(S(=O)(=O)NC(=O)Nc2ccc(Cl)cn2)cc1	-5.3%[38.3 µM]	5%	0.5	-19%	7%	15%	4.8
Oc1ccc(-c2nccc(-c3ccc(F)cc3)n2)cc1	6.8%	-2%	2.0	x	15%	-14%	-18
Nc1nnnn1/N=C/c1ccccc1C(F)(F)F	-1.1%	6%	-2.6	-26%	3%	2%	2.3
COc1ccc(/C=C2\Oc3cc(OCC(=O)N4CCC[C@H]4C(=O)O)ccc3C2=O)cc1OC	0.7%	-1%	-3.5	0.2%	x	7%	17
Cc1ccccc1N1CCN(C(=S)c2ccccc2)CC1	3.0%	-1%	1.1	-3.0%	3%	-1%	4.9
Clc1ccc(-n2cnc3c(Cl)ncnc32)cc1Cl	5.0%	-12%	-2.4	-12%	-60%[inhibitor]	x	x
O=C(NCCCc1ccncc1)C1CCC(=O)N(CCc2cccc(F)c2)C1 (centres undefined)	-0.5%	11%	0.7	0.8%	u	12%	3.5
COCCNC(=O)c1sc2ncn(CC(=O)Nc3ccc(C)c(Cl)c3)c(=O)c2c1C	1.0%	-21%	-2.5	-0.3%	-15%	u	2.2
Cc1ccc(S(=O)(=O)NC2CCCC2)cc1C	1.0%	-7%	-1.5	0.4%	2%	9%	-0.9
CC(C)(C)NC(=O)c1cc(-c2ccc3c(c2)OCO3)nc2ccccc12	0.9%	3%	-8.3	-17%	5%[15.4 µM]	6%	x
CCOc1ccccc1NC(=O)COn1nnc2ccccc21	0.0%	4%	0.5	0.4%	13%	8%	1.2
Cc1ccc(N2C(=O)N(CC(=O)NCc3ccccc3Cl)C(=O)C2C)cc1 (centres undefined)	-0.6%	0%	0.4	x	24%	22%	-2.8
CCN(CC)CCOC(=O)c1ccc(NC(=O)c2cn(-c3ccccc3)nc2-c2cccs2)cc1	-1.0%	-5%	-0.5	x	-2%[15.4 µM]	u	0.7
C[C@H](NC(=O)c1nc[nH]c1C(=O)N[C@@H](C)C(=O)OC(C)(C)C)C(=O)OC(C)(C)C	0.3%	12%	0.9	1.1%	u	22%	2.7
C[C@H]1CN([C@@H](C)CO)C(=O)CCCn2nncc2CO[C@H]1CN(C)S(=O)(=O)c1cccc(C#N)c1	-2.2%	x	-2.9	1.2%	-30%	x	x
C[C@H](CO)N1C[C@H](C)[C@@H](CN(C)C(=O)NC2CCCCC2)Oc2ccc(NC(=O)Nc3ccc(C(F)(F)F)cc3)cc2C1=O	1.3%	3%	2.1	2.0%	x	x	x
COCCOC(=O)c1[nH]c2c(c1C)C(=O)CC(c1cc(OC)c(OC)c(OC)c1)C2 (centres undefined)	1.8%	-28%	4.3	x	22%	6%	-1.4
CCn1c(=O)c(C(=O)NC(C)c2ccccc2)c(O)c2ccccc21 (centres undefined)	9.4%	2%	1.1	u	-32%[inhibitor]	4%	-9.2
CC(NCc1ccc(N(C)C)cc1)C1CC2CCC1C2 (centres undefined)	0.5%	7%	-0.1	-4.5%	9%	4%	1.0
CN(CC(=O)N1CCN(c2ccccn2)CC1)S(=O)(=O)c1ccc(Br)cc1	2.5%	-6%	0.2	u	11%	12%	-0.6

Compound activity from PubChem.
